Rango complex inh: prevents formation of the Rango-importin beta complex | 340,000 tested, 0.031% active | Potency, µM (doses to about 92.2 µM), without a hit: top-dose inhibition of complex formation | Rango CFP/YFP FRET sensor + importin beta, 45 min | Q14974; active = rising FRET ratio curve, often small or poorly fitted; inconclusive = mostly compound fluorescence or quenching in the first reads; inactive = flat curves in all reads;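 further: potency means the concentration at half of the fitted maximal effect; 0% = DMSO wells and 100% = buffer wells lacking importin beta; nearly all actives have a fitted effect of over 15% in size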
Target sequence (Q14974 whole entry, looked up): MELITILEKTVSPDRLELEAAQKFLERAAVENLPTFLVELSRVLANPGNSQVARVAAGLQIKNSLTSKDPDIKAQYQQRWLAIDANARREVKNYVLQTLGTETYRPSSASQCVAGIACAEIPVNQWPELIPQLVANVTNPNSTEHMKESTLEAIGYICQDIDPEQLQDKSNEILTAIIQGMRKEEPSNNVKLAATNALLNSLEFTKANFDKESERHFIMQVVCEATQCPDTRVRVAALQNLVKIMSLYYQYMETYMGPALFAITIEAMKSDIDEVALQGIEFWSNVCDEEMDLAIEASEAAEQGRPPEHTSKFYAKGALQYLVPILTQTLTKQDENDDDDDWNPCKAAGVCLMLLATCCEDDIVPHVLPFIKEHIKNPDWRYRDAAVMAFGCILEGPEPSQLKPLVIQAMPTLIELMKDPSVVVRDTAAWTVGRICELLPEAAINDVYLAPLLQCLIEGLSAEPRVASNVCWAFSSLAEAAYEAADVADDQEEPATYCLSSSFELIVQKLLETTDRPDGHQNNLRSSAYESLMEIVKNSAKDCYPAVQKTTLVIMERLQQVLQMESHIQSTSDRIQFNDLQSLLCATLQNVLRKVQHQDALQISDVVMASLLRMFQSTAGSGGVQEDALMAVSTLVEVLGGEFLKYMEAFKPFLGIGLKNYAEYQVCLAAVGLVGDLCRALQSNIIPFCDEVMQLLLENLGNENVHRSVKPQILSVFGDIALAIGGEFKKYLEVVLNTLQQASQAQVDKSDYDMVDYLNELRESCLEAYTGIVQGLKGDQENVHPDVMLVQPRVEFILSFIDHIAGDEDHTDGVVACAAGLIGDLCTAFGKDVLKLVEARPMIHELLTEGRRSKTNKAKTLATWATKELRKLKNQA
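FRET biosensor Rango (snurportin 1 IBB between N-terminal EYFP and C-terminal Cerulean), 50 nM in PBS/1 mM DTT/0.02% Tween-20/0.1% BSA, preincubated 5 min RT with compound; 0.125 microM importin beta added, 45 min RT, CFP/YFP FRET ratio read.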
Rango dissoc inh: prevents RanGTP from dissociating the Rango-importin beta complex. Biochemical FRET Rango-importin beta, RanGTP-induced dissociation. Potency, µM (titrated, usually from 46.1 µM), for inactives: at the top dose activity change, negative = inhibition. 340,000 tested, 0.071% active; active means falling FRET ratio curve, often poorly fitted, with flat reads before Ran was added; inconclusive means other falling curves, or compound fluorescence or quenching; inactive means flat or rising ratio curve;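 further: potency means the concentration at half of the fitted maximal effect; % of control where 0% means no effect; nearly all actives have a fitted effect of over 45% in size; -100% = wells without RanGTP and RCC1; the record marks most hits as doubtful in a second field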
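Compounds sat 5 min at room temperature with 0.1 uM Rango biosensor plus 0.25 uM importin beta, then FRET pre-read. RanGTP-RCC1 (0.6 uM Ran, 2mM GTP, 0.2 uM RCC1) added for 45 min, and the CFP/YFP post-read measured blocked complex dissociation.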
GLA inh pH 4.5: blocks human alpha-galactosidase A at pH 4.5. P06280. purified enzyme, 4-MU-alpha-Gal fluorescence, pH 4.5. activity change, negative = inhibition, % at 105 µM. 230,000 tested, under 10 active; inconclusive = small, poorly fitted or top-dose-only inhibition, or a rising curve; inactive = flat fitted curve, though single readings scatter; no compound was filed as active;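 further: 0% = full activity with enzyme and -100% = basal without enzyme; dose as in the result columns while the protocol names 77 µM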
miR-21 FLuc: raises the signal of a miR-21 reporter. HeLa miR-21 FLuc reporter, luciferase, 48 h. Potency, µM (highest dose often 38.3 µM), for the others: at the top dose reporter change, positive = more light. 340,000 tested, under 10 active. AID 2288; active = well fitted rising curve with a large enough effect; inconclusive = small, poorly fitted or top-dose-only effect; inactive = no such curve, though single readings can be large or run the other way;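 further: % of control where 0% means no effect; miR-21 action dims this reporter so a rising signal means less miR-21 action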
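Using DMEM plus 10% FBS, HeLa miR-21-FLuc cells are incubated with test compounds (final up to about 40uM) for 48 hours; firefly luciferase signal is then imaged following reagent-mediated lysis.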
* hit, by the source's call; u = inconclusive; x = not tested or not shown; & = joins results of further samples.

Rango dissoc inh,Rango complex inh,miR-21 FLuc,GLA inh pH 4.5,SMILES
-3.9%,-0.2%,-10.0%,0.9,C/C(=N\Nc1cc(Cl)nc(C)n1)c1ccc(Cl)c(Cl)c1
-15.4%,-2.6%,-1.7%,2.0,COC(=O)CCC(=O)NNC(=O)CCC(=O)Nc1cccc(Cl)c1C
-6.1%,-0.3%,-1.6%,x,O=C(CC(c1ccccc1)c1ccccc1)Nc1ccc(C(=O)O)cc1
-13.5%,1.5%,8.7%,-13.6,Cc1cc(Cl)ccc1NC(=S)NCc1ccc(Cl)cc1
-0.6%,-1.9%,-13.5%,x,CC(=O)c1sc2c(c1N)c(=O)[nH]c(=O)n2-c1ccccc1
-7.2%,5.8%,0.7%,x,Cc1nnc(NC(=O)c2ccc(F)c(S(=O)(=O)N3CCCCC3)c2)s1
0.0%,-3.7%,1.3%,-16.6,COc1ccccc1C1SCCN1S(=O)(=O)c1cccc(C(F)(F)F)c1 (stereo unspecified)
-1.5%,0.8%,-10.5%,5.4,CC12CCC(C(=O)N(NC(=O)c3ccccc3Cl)C1=O)C2(C)C (stereo unspecified)
-16.2%,-3.0%,3.6%,-3.7,CCC1Oc2ccc(C)cc2N(CC(=O)NCCCN2CCN(Cc3ccccc3)CC2)C1=O (stereo unspecified)
-8.5%,0.5%,x,x,O=C(Cc1ccc(NS(=O)(=O)c2ccc(Cl)c(Cl)c2)cc1)NCCN1CCOCC1
-8.8%,1.3%,-19.8%,-14.1,COc1cc(Nc2ncnc(N)n2)cc(OC)c1OC
-9.0%,u,-4.0%,6.7,O=S(=O)(NCc1cccnc1)c1ccc(Cl)nc1
-7.6%,2.2%,x,x,CCN(CC(=O)Nc1ccc(NC(C)=O)cc1)C(=O)c1ccc(COc2ccc(C(C)(C)C)cc2)cc1
21.9%,-0.5%,0.5%,x,O=C(NC1CCCCC1)c1cc(-n2cnnc2)ccc1Cl
12.2%,1.0%,7.0%,-4.1,Cc1cc(C)nc(SCC(=O)Nc2ccc(S(=O)(=O)NC(C)(C)C)cc2)n1
0.1%,-0.8%,0.3%,3.5,COc1ccc(CN(C)C(c2ccccc2)c2nnnn2-c2ccccc2C)c(OC)c1C (stereo unspecified)
2.0%,-1.9%,2.2%,-0.5,C/C(=N\S(=O)(=O)c1ccc(C)cc1)Nc1cc(C(C)C)c(O)cc1C
-19.7%,1.8%,-20.0%,-6.5,CSc1ccccc1C(=O)N1CCc2ccccc2C1
-7.8%,3.9%,-5.8%,4.3,COc1cccc2cc(C(=O)N3CCN(C(=O)c4ccco4)CC3)c(=O)oc12
-29.2%,3.6%,u,-8.3,COc1ccc(C(=O)/C=C/C(=O)N(CC(=O)NC2CCCCC2)CC2CCCO2)c(O)c1 (stereo unspecified)
10.0%,0.4%,x,x,Cc1ccc(C2=NOC(C)(c3sc(-c4ccc(Cl)cc4)nc3C)C2)cc1 (stereo unspecified)
7.5%,-0.6%,-1.9%,x,O=C(Cc1ccccc1)Nc1ccc(NC(=O)Cc2ccccc2)c(Cl)c1
-12.3%,-3.3%,1.8%,x,COc1ccccc1NC(=O)c1sc2ncn(CC(=O)Nc3ccccc3)c(=O)c2c1C
-9.7%,-2.2%,0.3%,x,CC(C)N(C(=O)Cn1c(=O)oc2ccccc21)c1ccccc1
2.3%,1.2%,-6.2%,1.6,Cc1cc(NC(=O)CN2CCN(c3ccccc3O)CC2)no1
-14.6%,-4.5%,-2.7%,-5.2,CCOC(=O)c1c(NC(=O)CSc2nnc(-c3cccnc3)o2)sc(C(C)=O)c1C
19.4%,0.2%,5.2%,8.4,Cc1ccc(SCc2noc(C(=O)NC(C)C)c2C(=O)O)cc1C
6.2%,0.2%,x,x,COc1ccc(NC(=O)COC(=O)c2ccc(S(=O)(=O)N3CCCC3)cc2)cc1OC
1.9%,-3.1%,-37.1%,-0.9,Cc1ccc(NC(=O)c2sc3nc[nH]c(=O)c3c2C)c(C)c1
-1.4%,3.8%,-8.5%,3.0,CCOc1c2ccc(C(=O)NCc3ccc(OC(F)(F)F)cc3)cc2nn1C
7.1%,0.3%,-8.6%,3.4,CCc1cc(N2CCOCC2)cc2c1[nH]c1ccccc12
-16.6%,-4.3%,0.0%,1.3,CS(=O)(=O)N1CCN(c2ccccc2NC(=O)C(c2ccccc2)c2ccccc2)CC1
u,u,-2.6%,x,COc1ccc(C(=O)NCCNc2nc3ccc(C)cc3cc2C#N)cc1OC
-24.2%,1.2%,x,x,O=C(NCC(F)(F)F)c1ccc(S(=O)(=O)Nc2ccccc2N2CCCC2)cc1
3.1%,-1.7%,0.0%,3.9,CCCCCc1nnc(NC(=O)Cn2cnc3ccccc3c2=O)s1
11.4%,3.5%,-34.1%,x,O=C(NC(=S)Nc1ccc(Br)cc1)C1CCC1
2.6%,0.2%,0.8%,-0.1,O=C(CSc1nnc(-c2cccnc2)n1-c1ccccc1)NCc1ccc2c(c1)OCO2
-12.6%,-2.4%,0.8%,x,COc1ccc(C)cc1NC(=O)c1cc(S(=O)(=O)N2CCC3(CC2)OCCO3)ccc1F
-27.9%,-0.3%,-0.2%,-0.9,CCOC(=O)c1[nH]cnc1C(=O)NC(C)C
-2.0%,0.4%,-5.5%,x,CC(C)CCNC(=O)C(=O)NCC1OCCCN1S(=O)(=O)c1cccs1 (stereo unspecified)
-18.9%,4.7%,x,x,COc1ccccc1NC(=O)COC(=O)C1CC2CCCC(C1)C2=O (stereo unspecified)
8.0%,-0.2%,11.1%,-2.1,Cc1onc(-c2c(Cl)cccc2Cl)c1C(=O)c1ccc(F)cc1
1.1%,-0.5%,3.8%,-0.6,O=C(c1ccc(Cl)cc1)N1CCCC(C(=O)N2CCc3ccccc3C2)C1 (stereo unspecified)
-2.2%,-1.9%,-19.8%,-3.2,Clc1ccc(-c2nnc(-c3ccccc3)c(N3CCSCC3)n2)cc1
13.0%,-2.9%,-0.7%,x,CCOC(=O)c1cccc(NS(=O)(=O)c2c(C(=O)N3CCCCCC3)c(C)n(C)c2C)c1
23.2%,1.0%,5.2%&1.7%,x,CCn1cc(C(=O)NCCCN2CCC(C)CC2)c(=O)c2cc(S(=O)(=O)N(C)C3CCCCC3)ccc21
1.3%,-0.9%,-11.6%,6.1,CC(C)Oc1ccc(C2CC(=O)N(c3ccccc3)C2=O)cc1 (stereo unspecified)
-20.5%,u,26.6%,x,Oc1cccc(C=Nc2cccc3ccccc23)c1O
-3.3%,-5.1%,2.3%,-3.6,COc1ccc(C(c2nnnn2C2CCCC2)N2CCc3ccccc3C2)cc1OC (stereo unspecified)
0.6%,-4.8%,x,x,COc1ccccc1C(=O)Cc1ccccc1
17.7%,-0.1%,-8.5%,-18.4,Cc1ccc(NC(=O)c2ccccc2O)cc1
x,x,16.5%,-10.6&-4.8,O=c1[nH]c2ccccc2n1CCCN1CCN(C(c2ccccc2)c2ccccc2)CC1
8.1%,-1.1%,-17.0%,-3.9,CCCNc1nc2c(c(=O)[nH]c(=O)n2C)n1CCC(C)C
0.5%,0.4%,x,x,COc1cc2c(cc1OC)C(C(=O)NC1CC1)C1c3ccccc3CCN1C2=O (stereo unspecified)
u,u,5.4%,x,COc1ccc(OC)c(/C=C/C(=O)Oc2ccc(C(C)=O)cc2)c1
11.1%,0.0%,-8.9%,4.5,CC(C)Cn1c(N)c(C(=O)CSc2ccccc2)c(=O)n(C)c1=O
6.1%,-0.1%,-2.3%,0.0,O=C(NP(=O)(N1CCCC1)N1CCCC1)C1=C(N2CCOCC2)/C(=C/c2cccc([N+](=O)[O-])c2)CC1
-11.0%,0.1%,-0.3%,x,O=C(CNC(=O)c1cccs1)OCc1ccc(Cl)cc1
-8.5%,-0.1%,x,x,O=C(NC1CCC(O)CC1)C1CCN(S(=O)(=O)c2c(Cl)cccc2Cl)CC1 (stereo unspecified)
-1.1%,0.7%,-4.5%,0.6,CCCNC(=O)COC(=O)c1[nH]c(C)c(C(=O)OCC)c1C

Additional structures.
Rango dissoc inh,Rango complex inh,miR-21 FLuc,GLA inh pH 4.5,SMILES
4.8%,-2.2%,2.7%,2.6,Cc1ccccc1NC(=O)CC1c2ccccc2CC(C)(C)N1C (stereo unspecified)
5.2%,-3.6%,-25.2%,1.4,CC(C)COC(=O)c1cc(-c2ccc(/C=N/n3cnnc3)o2)ccc1Cl
-0.6%,-0.2%,7.0%,1.1,COc1ccc(NC(=S)NCCc2c(C)[nH]c3ccc(OC)cc23)cc1
2.8%,1.9%,0.6%,x,O=C(CCN1C(=O)/C(=C/c2ccccc2F)SC1=S)N[C@@H](CO)Cc1ccccc1
-2.6%,0.2%,28.1%,x,COCCNC(=O)c1cccc(OC2CCN(Cc3ccc(Cl)c(F)c3)CC2)c1
-12.5%,3.1%,-38.6%,0.5,COc1ccc(CNC(=O)c2ccc(N3CCCC3=O)cc2)cc1
1.0%,3.1%,-1.6%,3.1,N/C(=N\OC(=O)CCCN1C(=O)c2ccccc2C1=O)c1ccccn1
-0.1%,0.2%,-59.3%,-3.4,O=C(Nc1ccc(-c2noc(-c3ccccc3F)n2)cc1)c1cccs1
-5.6%,-2.5%,-4.8%,x,Cc1ccc(NC(=O)C(C)OC(=O)/C=C/c2ccccc2)cc1 (stereo unspecified)
5.7%,1.9%,-5.7%,0.9,Cc1nc(SCC(=O)NCc2cccs2)nc(C)c1C
1.7%,-1.7%,-1.2%,0.5,COC(=O)/C(=C\Nc1cccc(Cl)c1C)c1ncc(C(F)(F)F)cc1Cl
0.1%,u,x,x,Cc1ccc(-c2cc(C(=O)NNC(=O)c3csc(N4CCOCC4)n3)c3ccccc3n2)cc1
5.1%,-1.0%,1.1%,x,Cc1ccc(C(=O)Oc2ccc(C(=S)N3CCOCC3)cc2)cc1
2.5%,3.4%,-3.0%,-2.4,Cc1cccc(NC(=S)/N=C(\N)Nc2nc(C)c3cc(C)ccc3n2)c1
-10.5%,-0.1%,-6.6%,-1.0,COc1ccc(-c2c(C#N)c(SCc3c(C)noc3C)nc3c2C(=O)CC(C)(C)C3)cc1
19.0%,5.7%,-53.5%,x,O=C(COc1ccc(F)cc1)Nc1nc2c(s1)CCCC2
-6.4%,-0.1%,x,x,NC(CSC(c1ccccc1)(c1ccccc1)c1ccccc1)C(=O)O (stereo unspecified)
-1.3%,-1.9%,x,x,COc1ccc(C(=O)CC(=O)c2ccc(F)cc2)cc1
-13.6%,1.4%,-74.5%,12.4,COc1ccccc1NS(=O)(=O)c1cccc(NC(=O)c2cc3ccccc3oc2=O)c1
8.4%,2.1%,-38.2%,x,CCOc1ccc(-c2cc(C(=O)NCCCN3CCCC3)c3ccccc3n2)cc1
-3.1%,6.1%,0.0%,-1.1,c1ccc(N2CCN(c3ncnc4scc(-c5cccs5)c34)CC2)cc1
0.7%,-1.5%,0.0%,x,CC(=O)Nc1ccc(S(=O)(=O)N2CCN(C(=O)N3CCCCC3)CC2)cc1
3.1%,-1.1%,-3.1%,u,CCC(=O)OCc1c(C(F)(F)F)nn(C)c1Sc1ccc(F)cc1
-7.6%,-0.1%,-5.9%,7.0,CSc1ncccc1C(=O)Nc1ccc(F)c(F)c1F

An excerpt (hit frequency here may not be typical).
